Source: PubChem (National Center for Advancing Translational Sciences (NCATS))
HSD17B inh = qHTS Assay for Inhibitors of HSD17B4, hydroxysteroid (17-beta) dehydrogenase 4 | Potency, µM (top dose mostly 57.1 µM), without a hit: top-dose activity change, negative = inhibition, most hits filed as inhibitors | recombinant HSD17B10, NADH fluorescence kinetic; many of its hits are not listed in these tables | hit rate 7.6% among 75,000 | 3-hydroxyacyl-CoA dehydrogenase type-2 (Homo sapiens), Q99714 | AID 893, 2007; active = well fitted inhibition curve with a large enough effect; inconclusive = small, poorly fitted or top-dose-only effect; inactive = no such curve, though single readings can be large or run the other way;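 also: the protocol describes HADH2 (HSD17B10) and not the HSD17B4 of the title; nearly all actives have a fitted effect of over 70% in size; most hits overshoot -100% by far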
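Enzyme plus compound, 15 min room temperature; substrate mix added (NAD+ 1 mM, beta-hydroxybutyryl-CoA 90 uM final); plates read kinetically for NADH fluorescence. HADH2 was His-tagged, E. coli-derived, 20 nM.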
An asterisk follows results filed as active; ? = inconclusive; [ ] = dose if it differs, or a comment. % is scaled to controls: 0 for no effect and ±100 for the full control effect; potency is read from the fitted curve at half-maximal effect.

No.	smiles	HSD17B inh
1	O=c1c2c3nc4ccccc4nc3n(CC3CCCO3)c2ncn1CCc1ccccc1 (stereo not drawn)	6.3µM*
2	Cc1ccc(S(=O)(=O)N2CCCC(C(=O)NCc3ccccn3)C2)cc1 (stereo not drawn)	0%
3	C=CCn1c(Cc2nc3ccccc3[nH]2)n[nH]c1=S	-4%
4	Cc1nc2nc[nH]n2c(=O)c1NC(=O)CCc1ccccc1	-3%
5	O=C1CC(C(=O)Nc2ccc(C(=O)N3CCOCC3)cc2)C2(CCCCC2)O1 (stereo not drawn)	7%
6	COc1ccccc1-c1ccc2ncnc(NC3CCNCC3)c2c1	?
7	CC(=O)Nc1ccc(S(=O)(=O)N2CCN(Cc3ccncc3)CC2)cc1	-11%
8	NS(=O)(=O)c1ccc(CCNC(=O)c2cncc(Br)c2)cc1	15%
9	COc1cccc(-c2nc(CS(=O)(=O)CC(=O)Nc3c(C)cccc3C)c(C)o2)c1	-15%
10	O=S(=O)(/N=C(\c1ccccc1)N1CCOCC1)c1cccs1	3%
11	COc1cc(C)c2c(c1C=O)Oc1c(c(C)c(O)c3c1C(O)OC3=O)OC2=O (stereo not drawn)	-15%
12	N#Cc1nc(COc2ccc(F)cc2)oc1NCCN1CCOCC1	-4%
13	CCN(C(=O)COc1ncnc2ccc(Br)cc12)C1CCS(=O)(=O)C1 (stereo not drawn)	2%
14	Cc1cc(C)nc(N2CCCC(C(=O)NC(C)CCc3ccco3)C2)n1 (stereo not drawn)	?
15	CC(C)C(=O)c1cn(CC(=O)NCC2CCCO2)c2ccccc12 (stereo not drawn)	-5%
16	CCCC[C@@H]1C[C@H]1C(NS(=O)(=O)c1cccc2cccnc12)c1ccc(-c2ccccc2)cc1 (stereo partly drawn)	-14%
17	c1cc(CSc2nnc(-c3ccc4c(c3)OCO4)o2)ccn1	9%
18	COc1ccc(C(=O)N[C@H]2COC(C)(C)O[C@H]2c2ccccc2)cc1	6%
19	Clc1ccccc1-c1nc(NCc2cccnc2)c2ccccc2n1	-1%
20	O=C(OCC(=O)N1CCCC1)c1ccccc1OCc1ccccc1	6%
21	N#C/C(=C\C1CC=CCC1)c1nc2ccccc2[nH]1 (stereo not drawn)	25µM*
22	CC1(C)CC(=O)C2=C(C1)NC(SCC(=O)Nc1ccccc1)=C(C#N)C2c1ccco1 (stereo not drawn)	25µM*
23	CCOc1ccc(C2=CS/C(=C(\C#N)c3nnc4n3CCCCC4)N2CC)cc1	-14%
24	CCC(=O)N1CCN(CCN=CC2=C(O)CC(C)(C)CC2=O)CC1	2%
25	CCOC(=O)c1cc(C)n(-c2c(C)n(C)n(-c3ccccc3)c2=O)c1C	1%
26	Brc1ccc(-c2nnc(-c3ccccc3Br)o2)cc1	3%
27	COC(=O)c1ccccc1NC(=O)NC1CCN(Cc2ccccc2)CC1	25µM*
28	CC(C)=C1C(=O)C(c2ccccc2)=C2CN3C(=O)N(CCc4ccccc4)C(=O)[C@]3(C)[C@H]21	3%
29	C[N+](C)([O-])Cc1cc(-c2ccccc2)ccc1O	-1%[11.4 µM]
30	Cc1cccc(N(Cc2nnc3n2CCCCC3)C(=O)Nc2ccccc2)c1	5%

Reprinted from the part before: 7 compounds, followed by the next part.
No.	smiles	HSD17B inh
24	CCC(=O)N1CCN(CCN=CC2=C(O)CC(C)(C)CC2=O)CC1	2%
25	CCOC(=O)c1cc(C)n(-c2c(C)n(C)n(-c3ccccc3)c2=O)c1C	1%
26	Brc1ccc(-c2nnc(-c3ccccc3Br)o2)cc1	3%
27	COC(=O)c1ccccc1NC(=O)NC1CCN(Cc2ccccc2)CC1	25µM*
28	CC(C)=C1C(=O)C(c2ccccc2)=C2CN3C(=O)N(CCc4ccccc4)C(=O)[C@]3(C)[C@H]21	3%
29	C[N+](C)([O-])Cc1cc(-c2ccccc2)ccc1O	-1%[11.4 µM]
30	Cc1cccc(N(Cc2nnc3n2CCCCC3)C(=O)Nc2ccccc2)c1	5%
31	O=C(Cn1nnc2ccccc2c1=O)NC1CCCc2ccccc21 (stereo not drawn)	-3%
32	CN(c1ccc(C(=O)NCc2ccncc2)cc1)S(C)(=O)=O	5%
33	Cn1cccc1C(=O)NS(=O)(=O)c1ccccc1Cl	7%
34	COC(=O)[C@@]1(Cc2ccc(OC)cc2)[C@H]2c3cc(C(=O)N(C)C)n(Cc4ccc(OC(F)(F)F)cc4)c3C[C@H]2CN1C(=O)c1ccccc1	4%
35	Oc1ccc(-c2nc3ncccn3c2Nc2ccc3c(c2)OCCO3)cc1	-10%
36	O=C1C=C(O)c2ccccc2C1=O	-11%
37	CN(CC(=O)O)Cc1c[nH]c2ccccc12	9%[11.4 µM]
38	O=C(O)[C@@H]1CS[C@@]2(CCCN(Cc3ccccc3)C2)N1	1%[11.4 µM]
39	COC(=O)c1c(-c2cccs2)csc1NC(=O)CN1CCOCC1	-10%
40	CC1Cc2ccccc2N1C(=O)CSc1nnc(-c2ccc(S(=O)(=O)N3CCCC3)cc2)o1 (stereo not drawn)	10%
41	O=S(=O)(NCc1cn2ccccc2n1)c1cc(F)ccc1F	-4%
42	COc1ccc(C(=O)NCCn2ccc3ccccc32)c(OC)c1	4%
43	C=CCn1c(SCC(=O)Nc2cc(C)ccc2C)nnc1-c1cnccn1	4%
44	COc1ccc(O)c(C=Nc2cc(C)on2)c1	0%
45	COc1ccc(C2C(C(=O)NCc3ccco3)CCC(=O)N2c2ccc(OC)cc2)cc1 (stereo not drawn)	7%
46	CCOC(=O)c1ccc(NS(=O)(=O)c2cc(-c3nnnn3CC)ccc2OC)cc1	2%
47	COc1ccc(C(=O)N2CCC3(CCN(C(=O)Nc4cccc(C#N)c4)CC3)CC2)cc1	5%
48	O=C(Nc1nnc(CCc2ccccc2)s1)c1ccco1	-4%
49	Cc1cc(OCC(=O)N2CCOCC2)ccc1NC(=O)C1CCCCC1	0%
50	Cc1ccc2cccc(S(=O)(=O)Nc3c(C)n(C)n(-c4ccccc4)c3=O)c2n1	2%
51	Cc1nc2cc(CO)ccc2s1	-3%
52	CCOc1ccccc1NC(=O)C1CCCN(S(=O)(=O)c2cccc3nsnc23)C1 (stereo not drawn)	5%
53	Cc1ccc(C)c(-c2nnc(OCC(=O)Nc3cc(C)on3)c3ccccc23)c1	-2%
54	CC(CCl)OC(C)CCl (stereo not drawn)	0%
55	CCOc1ccccc1-c1nc(-c2ccc(NC(=O)Cc3ccccc3OC)cc2)no1	?
56	CCOC(=S)SCC(=O)O	-5%[11.4 µM]
57	CCCCC#CC1C=CC(Oc2cc(OC)c(OC)c(OC)c2)C(CO)O1 (stereo not drawn)	-12%[11.4 µM]
58	COCCCNC(=O)CCc1nc2cccnc2n1Cc1ccc(OC)cc1	2%
59	CCC(=O)N1CCc2cc(Br)cc(S(=O)(=O)CCC(=O)NCC3CCCO3)c21 (stereo not drawn)	9%
60	Cc1ccn(C(=O)c2ccc(NC(=O)C3CCCCC3)cc2)n1	-27%
61	CCN(C(=O)Cc1cccs1)c1nnc(-c2cc(OC)c(OC)c(OC)c2)s1	13µM*
62	O=C(CSc1nc2ccccc2[nH]1)N1CCCCC1	7%
63	CN(C)c1ncnc2ccc(-c3cccc(NS(C)(=O)=O)c3)cc12	3%
64	Cc1ccc(N(Cc2ccco2)C(=O)c2cccc(S(=O)(=O)N(C)C)c2)cc1	0%
65	COc1cc(C(=O)NCc2cn3cccc(C)c3n2)cc(OC)c1OC	?
66	Cc1c(CCC(=O)O)c(=O)oc2cc3occ(-c4ccc(F)cc4)c3cc12	?
67	Nc1cc(OC(=O)c2cccs2)nn1S(=O)(=O)c1ccccc1	-19%
68	O=C(CN1C(=O)NC2(CCSC2)C1=O)N1CCN(c2ccc(F)cc2)CC1 (stereo not drawn)	1%
69	O=S(=O)(Cc1ccccc1)Nc1ccc(S(=O)(=O)NCC2CCCO2)cc1 (stereo not drawn)	15%
70	COc1ccc(C(=O)CN2C(=O)C(C)(C)Oc3ccc(C(=O)N4CCCCCC4)cc32)cc1	6%
71	CNC(=O)c1cc2c(cn1)[nH]c1ccccc12	32µM*
72	COc1ccccc1-c1nnc(SCC(=O)N2CC(C)CC(C)C2)o1 (stereo not drawn)	1%
73	O=C(c1ccccc1Oc1ccccc1)N1CCN(c2ccccc2)CC1	-14%
74	CCOC(=O)c1cc(NC(=O)c2cnccn2)cc(C(=O)OCC)c1	4%
75	CCOC(=O)OCC1OC(c2ccc(C(C)=O)cc2)C=CC1Oc1ccc(-c2ccccc2)cc1 (stereo not drawn)	2%[11.4 µM]
76	CCOc1ccc(N(CC(=O)Nc2cccc(OC)c2)S(=O)(=O)c2c(C)noc2C)cc1	-8%
77	O=C1CC(N2CCN(C/C=C/c3ccccc3)CC2)C(=O)N1Cc1cccs1 (stereo not drawn)	-1%
78	CCN(C(=O)c1cc(Cl)ccc1OC)c1ccccc1	-2%
79	CC1CCCCC1NC(=O)CSc1nnc(COc2ccccc2Cl)o1 (stereo not drawn)	4%
80	COc1ccc(N2CCN(CCCNC(=O)CN3CCN(Cc4ccccc4C)C3=O)CC2)cc1	15%
81	COc1ccccc1C(OC(=O)c1ccco1)C(=O)NC(C)(C)C (stereo not drawn)	4%
82	CN(C)c1nc(NS(=O)(=O)c2ccc(Cl)cc2)nc(N(C)C)n1	11%
83	Cc1ccc2cc(CN(CCO)Cc3nnnn3Cc3ccc(F)cc3)c(=O)[nH]c2c1	-10%
84	CN(CC(=O)Nc1cccnc1)S(=O)(=O)c1cc(Cl)ccc1Cl	4%
85	COc1cccc(/C=N/n2c(-c3ccco3)nc3ccccc3c2=O)c1	1%
86	CC(=O)N(Cc1cccnc1)Cc1cc2ccc(C)cc2[nH]c1=O	?
87	COc1ccc(NC(=O)Nc2nnc(N3CCC(C)CC3)s2)cc1OC	1%
88	CCOC(=O)CCNC(=O)Nc1ccc2nc(C)n(Cc3cccc(Cl)c3)c(=O)c2c1	?
89	Cc1cccc(-n2cnc3cc(C(=O)N4CCCCC4)ccc32)c1	4%
90	CC1CCc2c(nc3ncnn3c2N2CCN(c3ccccc3)CC2)C1 (stereo not drawn)	2%

Reformatted: 2 of the compounds above
88	CCOC(=O)CCNC(=O)Nc1ccc2nc(C)n(Cc3cccc(Cl)c3)c(=O)c2c1
  HSD17B inh = ?

80	COc1ccc(N2CCN(CCCNC(=O)CN3CCN(Cc4ccccc4C)C3=O)CC2)cc1
  HSD17B inh = 15%

Additional compounds:
No.	smiles	HSD17B inh
91	CC(=O)C1=C(C)N=c2s/c(=C/c3ccc4c(c3)OCO4)c(=O)n2C1c1ccc(N(C)C)cc1 (stereo not drawn)	-5%
92	O=C(Nc1ccccc1)N1CC2(CCN(C(=O)c3cnccn3)CC2)C1	7%
93	Cc1ccc(C2CC(c3ccccc3)n3ncnc3N2)cc1 (stereo not drawn)	5%
94	CCOC(=O)Cc1csc(NC(=O)c2c(O)c3ccccc3n(C)c2=O)n1	5%
95	CCOC(=O)N/N=C1/C[C@@H](O)[C@@H](O)[C@@H]2[C@@H]3C(=O)N(C4CCCCC4)C(=O)[C@H]3CC[C@@H]12	-1%[11.4 µM]
96	O=S(=O)(c1ccc(NCC2CCCCC2)nc1)N1CCOCC1	?
97	c1cncc(Nc2nc(-c3cccnc3)cs2)c1	-1%
98	CCOC(=O)NC1(NC2CCCCC2)Oc2ccccc2O1	-18%
99	Clc1ccccc1C(Nc1ncccn1)Nc1ncccn1	1%[11.4 µM]
100	COC(=O)CCC(=O)Nc1ccc(Cl)c(Cl)c1	-1%
101	COc1ccc(N=C(C)C2=C(O)COC2=O)cc1	2%
102	COC(=O)COc1ccc(S(=O)(=O)NCCC2=CCCCC2)cc1C	11%
103	Cc1cccc2cc(CN(CC3CCCO3)C(=O)c3ccco3)c(=O)[nH]c12 (stereo not drawn)	32µM*
104	COc1ccc(CNC(=O)C2CCCN2C(=O)NC2CCCCC2)cc1 (stereo not drawn)	11%
105	Cc1ccc(Cl)cc1NC(=O)CC(O)(C(F)(F)F)C(F)(F)F	-14%
106	CCc1cc(=O)oc2cc(C)cc(OC(=O)c3ccco3)c12	18%
107	Cn1c(C(=O)O)c(CC(=O)Nc2ccc3c(c2)OCCO3)c2ccccc21	0%
108	COc1cccc(N2C(=O)CC(c3c[nH]c4ccccc34)C2=O)c1 (stereo not drawn)	5%
109	COc1cc(/C=C/C(=O)N2CCC=CC2=O)cc(OC)c1OC	98%[activator]
110	COC(=O)[C@@]1(Cc2ccccc2)[C@H]2c3cc(C(=O)N4CCCC4)n(Cc4c(CO)[nH]cc(C)c4=O)c3C[C@H]2CN1C(=O)c1ccccc1	-27%
111	CCN(CC)S(=O)(=O)c1ccc(/C(O)=C(\C#N)c2nc3ccccc3n2C)cc1	-1%
112	Cc1cc(C(C)(C)C)cc(S(=O)(=O)NCCO)c1C	2%
113	CC1CN(S(=O)(=O)c2cccc(-c3cn4ccccc4n3)c2)CC(C)O1 (stereo not drawn)	-10%
114	COc1ccc(C2CC(=O)C(C=NCCCN3CCOCC3)=C(O)C2)cc1 (stereo not drawn)	-2%
115	Cc1ccc(C(=O)Nc2ccc3c(c2)OCO3)cc1S(=O)(=O)N1CCCCC1	-11%
116	CC/C(=C1/C(=O)CC(C)(C)C(C(=O)OC)C1=O)N1CCCC1 (stereo not drawn)	10%
117	Cn1cccc1Cc1nnc(SCC(=O)N2CCOCC2)n1CCc1ccccc1	4%
118	COC(=O)c1ccc(Nc2cc(C)nc3ncnn23)cc1	-1%

An excerpt. The share of hits here may be higher or lower than overall.
